Calb FLC – C. albicans growth modulation with fluconazole; C. albicans CaCi-2 (fluconazole-resistant clinical isolate) + fluconazole, Alamar Blue growth, 48 h; growth inhibition, % (no concentration beside the values); 300,000 compounds, 0.57% hits; AID 1979;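 active means most replicates above 75%; inconclusive means exactly half above 75%; inactive means most below 75%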;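 further: all wells also contain fluconazole at 8 µg/ml as a sub-toxic cotreatment; 0% = median of DMSO wells and 100% = median of geldanamycin control wells; wells of about 8 µL received 7.5 nL stock; the first replicate is given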
UCH37 inh – blocks the human deubiquitinase UCH37; purified proteasome/UCH37, Ub-AMC cleavage fluorescence; inhibition, % (concentration not given with the values); 330,000 compounds, 0.33% hits; AID 588478; Q9Y5K5;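 active means mean of two replicates above 20%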;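 further: 0% = compound-free wells with enzyme and 100% = wells lacking proteasome; stock transfer was 100 nL into about 20 µL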
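system = Proteasome-associated human UCH37 deubiquitinase | amount = 0.15 nM proteasome as dispensed | medium = pH 7.4 Tris-HCl (50 mM) with ovalbumin, ATP-MgCl2, DTT | incubation = 30 min preincubation with enzyme, 25 min cleavage at room temperature | detection = AMC fluorescence 355/460 nm | read-out basis = percent inhibition | controls = no-proteasome and no-compound wells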
RanGTP-Impb inh – inhibitors of RanGTP-importin-beta interaction, primary screen, biochemical, FRET, CFP-Ran, YFP-importin-beta, homogeneous; cell-free CFP-Ran/YFP-importin-beta FRET ratio; inhibition, % (concentration not given with the values); 300,000 compounds, 1.1% hits;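 active means most replicates above 15%; inconclusive means exactly half above 15%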;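 further: 0% = DMSO wells and 100% = Ran loaded with GDP instead of GTP; wells of about 40 µL received 100 nL stock; the first replicate is given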
A1 inh – inhibitors of the anti-apoptotic protein A1, read as caspase activation | 330,000 compounds, 0.066% hits | MEF A1-2A-BIM cells, Caspase-Glo 3/7 luminescence, 3 h; percent of clofoctol response, vehicle zero | AID 2462 | caspase activation, % (concentration not given with the values);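 active means over half of replicate activation scores above 10%, or exactly half above 10 with the replicate mean above 10; inconclusive means replicate mean below 10 yet half the replicates above 10; inactive means over half of replicates below 10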;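 further: wells of about 30 µL received 50 nL stock; many hits fall short of the cut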
Beta cell apopt – beta cell apoptosis inhibition. INS-1E cytokine-induced death, ATP luminescence, 48 h; percent of positive-control rescue, neutral wells zero. protection from apoptosis, % (no concentration beside the values). 300,000 compounds, 0.8% hits. AID 435005;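 active means all replicates at 75% or more, or half of them and the mean; inconclusive means half reach 75% but not the mean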;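 further: 0% = cytokine-treated negative control wells and 100% = positive control rescue; higher means more ATP so stronger rescue from cytokine killing; wells of about 40 µL received 100 nL stock; the first replicate is given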
LANA-H2A inh – blocks KSHV LANA binding to histone H2A/H2B | inhibition, % (no concentration beside the values) | Q9QR71 | cell-free LANA-H2A/H2B peptide, fluorescence polarization | 320,000 compounds, 0.6% hits | AID 2629; in the data active means inhibition mostly above about 10%, no sharp cut-off; inactive means mostly below about 6.7%;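 further: stock transfer was 7.5 nL into about 10 µL; 0% = median of vehicle wells and 100% = median of positive control wells; one replicate is shown; the record names a cut of 25% in any replicate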
Target sequence (Q9QR71 whole entry, looked up): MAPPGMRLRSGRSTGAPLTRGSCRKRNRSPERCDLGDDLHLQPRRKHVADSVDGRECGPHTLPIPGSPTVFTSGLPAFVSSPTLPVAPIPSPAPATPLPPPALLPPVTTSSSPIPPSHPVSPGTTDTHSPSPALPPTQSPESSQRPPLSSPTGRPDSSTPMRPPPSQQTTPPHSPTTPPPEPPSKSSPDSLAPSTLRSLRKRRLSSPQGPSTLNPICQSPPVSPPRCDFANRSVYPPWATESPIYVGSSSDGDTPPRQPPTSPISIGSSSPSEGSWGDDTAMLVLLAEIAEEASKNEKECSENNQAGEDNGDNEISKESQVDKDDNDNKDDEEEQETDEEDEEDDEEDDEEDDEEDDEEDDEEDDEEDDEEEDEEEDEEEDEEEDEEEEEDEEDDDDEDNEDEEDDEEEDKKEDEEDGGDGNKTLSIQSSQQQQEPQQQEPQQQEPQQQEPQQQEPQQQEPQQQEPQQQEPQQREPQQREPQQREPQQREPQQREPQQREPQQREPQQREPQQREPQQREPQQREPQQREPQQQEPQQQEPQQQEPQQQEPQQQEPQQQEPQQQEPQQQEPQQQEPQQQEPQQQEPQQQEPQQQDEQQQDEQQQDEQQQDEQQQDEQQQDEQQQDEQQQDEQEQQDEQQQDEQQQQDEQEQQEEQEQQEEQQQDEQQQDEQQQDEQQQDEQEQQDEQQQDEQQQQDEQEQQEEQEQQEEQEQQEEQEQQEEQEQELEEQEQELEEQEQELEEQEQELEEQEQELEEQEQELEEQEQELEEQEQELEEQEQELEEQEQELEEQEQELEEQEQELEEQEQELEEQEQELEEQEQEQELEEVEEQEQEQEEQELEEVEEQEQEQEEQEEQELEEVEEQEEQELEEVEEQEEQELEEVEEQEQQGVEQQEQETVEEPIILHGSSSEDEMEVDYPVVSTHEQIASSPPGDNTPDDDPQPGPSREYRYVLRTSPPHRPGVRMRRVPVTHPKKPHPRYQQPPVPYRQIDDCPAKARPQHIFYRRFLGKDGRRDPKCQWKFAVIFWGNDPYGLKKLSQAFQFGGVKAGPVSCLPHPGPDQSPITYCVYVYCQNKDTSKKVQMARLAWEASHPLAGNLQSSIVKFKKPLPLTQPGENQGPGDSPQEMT
B2AR ag – human beta-2 adrenergic receptor agonism by FAP | P07550 | Am2.2-beta2AR cells, FAP receptor internalization, flow cytometry; reference of the scale not given here | response, % (test concentration not listed) | 340,000 compounds, 0.43% hits | AID 504454;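 active means response above a set limit, near 3 SD of response in nonfluorescent compounds, cut at about 42% in these data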;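 further: stock transfer was 100 nL into about 11 µL; a reference agonist was the positive control; negative values mostly stem from fluorescent compounds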
T cruzi inh – blocks replication of Trypanosoma cruzi; T. cruzi beta-gal in NIH3T3, luminescence, 90 h; inhibition, % (no concentration beside the values); 300,000 compounds, 1.4% hits;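 active means mean inhibition across valid replicates above about 55%, limit read from the data; inconclusive means mean below that limit but half or more replicates reach it; inactive means mean below it, under half of replicates reach it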;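 further: signal also drops with host cell toxicity which is not excluded here; 0% = plate median of DMSO wells and 100% = zero luminescence signal; higher percent means less beta-gal luminescence so fewer parasites; stock transfer was 50 nL into about 50 µL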
* marks the source's active call; other numbers are inactive results; ? = inconclusive; · = no result given; ! = repeats disagree. Rows are unselected. Share with any hit: about 4.3%.

SMILES | Calb FLC | UCH37 inh | RanGTP-Impb inh | A1 inh | Beta cell apopt | LANA-H2A inh | B2AR ag | T cruzi inh
Cc1ccccc1NC(=S)NC(=O)c1cc(-c2ccccc2)nc2ccccc12 | 3 | 4.6 | -1.9 | 0.3 | 2 | -6.1 | 3 | 21
O=C(OCc1cn(Cc2ccccc2)nn1)c1ccccc1 | 1 | 4.3 | 0.5 | -1.3 | -8 | 0.1 | -6 | -2
CC(=O)c1ccc(NS(=O)(=O)c2ccccc2)cc1 | -3 | 4.8 | -2.4 | 0.7 | -5 | 1.4 | 0 | -8
Cc1ccc(NC(=S)NCC2CCCO2)cc1C (configuration not stated) | 13 | 2.1 | 4.5 | 0.7 | -1 | -1.7 | 2 | -17
Cc1ccc(NC(=O)c2ccccc2)s1 | -2 | 4.4 | 4.7 | -12 | -2 | -0.9 | 2 | -3
Cc1c(C)c2ccc(OCC(=O)NC(Cc3ccc(Cl)cc3)C(=O)O)cc2oc1=O (configuration not stated) | 4 | -101 | ? | -0.1 | · | 4.0 | -5 | -4
C[C@@H]1C=C(C(=O)N2CCOCC2)O[C@H](OCc2ccc(CO)cc2)C1 | -12 | 4.0 | 2.3 | -0.8 | -2 | 2.6 | -7 | -4
Cc1ccc(-c2nn(-c3ccccc3)cc2/C=N/NC(=O)c2ccncc2)o1 | 20 | · | 12 | -0.1 | 7 | -2.7 | 2 | -29
O=C(O)Cc1ccc(O)c(F)c1 | · | -3.3 | 3.4 | 0.1 | -4 | 47*! | -5 | -23
O=c1cc(Cl)c(-c2ccccc2)n[nH]1 | -6 | -0.8 | 0.5 | 0.5 | 1 | 4.0 | 5 | -20
COc1cc(/C=N/NC(=O)c2cccnc2)ccc1OC(=O)c1cccc(Br)c1 | 10 | · | 0.6 | -0.1 | 2 | -3.6 | -12 | -11
C/C(=N\NC(=O)c1cccc(S(=O)(=O)N2CCCC2)c1)c1ccc(OCC(=O)N(C)C)cc1 | 7 | · | 2.2 | 0.0 | -3 | -1.4 | -5 | ?
CCN1CCCC1CNC(=O)C1CCCN(S(=O)(=O)c2cccc3nsnc23)C1 (configuration not stated) | -5 | 8.1 | -3.9 | 1.0 | -3 | 6.5 | 5 | -5
C#CCOCCOCCOCCNc1nc(N2CCN(C(=O)CCCCCCCCCCNC(=O)[C@@H](CCC(=O)O)n3cc(CCCCCN)nn3)CC2)nc(N2CCN(C(=O)CCCCCCCCCCNC(=O)[C@H]([C@@H](C)CC)n3cc(CCCCCN)nn3)CC2)n1 | · | · | · | -0.2 | 1 | -5.4 | 52* | ·
C#CCOCCOCCOCCNc1nc(N2CCN(C(=O)CCCCCCCCCCNC(=O)[C@H](CCCCN)n3cc(C[C@@H](C)CC)nn3)CC2)nc(N2CCN(C(=O)CCCCCCCCCCNC(=O)[C@@H]([C@H](C)O)n3cc(C)nn3)CC2)n1 | · | 4.0 | · | -0.4 | 99* | 1.0 | 77* | ·
CCOCCCNC(=O)CN1C(=O)CSc2cc(S(=O)(=O)N3CCCCCC3)ccc21 | -9 | 2.4 | -0.2 | 1.5 | -2 | 3.0 | -1 | 2
CCCn1nnnc1SCC(=O)Nc1nnc(CC)s1 | 2 | 5.0 | 0.3 | 0.3 | -4 | 6.2 | 0 | -8
COc1ccc(-c2noc(CNS(=O)(=O)c3ccc(NC(C)=O)cc3)n2)cc1OC | 6 | 0.3 | -0.2 | 0.9 | -4 | -0.9 | -5 | -25
O=[N+]([O-])c1cccc(S(=O)(=O)[N-]c2nc3ccccc3nc2-n2cc[n+](Cc3ccccc3)c2)c1 | 3 | 2.3 | -2.2 | -0.1 | -4 | 1.0 | 4 | 0
Cc1c(NC(=O)c2ccc(Br)s2)c(=O)n(-c2ccccc2)n1C | 6 | 7.0 | 5.2 | 0.6 | · | 0.9 | 0 | -3
Cc1cc(NC(=O)COC(=O)C2COc3ccccc3O2)no1 (configuration not stated) | 41 | 0.3 | -0.4 | 0.6 | -2 | -1.8 | 0 | -5
CCOc1ccc(-c2cc(CCCC(=O)Nc3cc(OC)ccc3OC)no2)cc1 | -6 | -0.2 | ? | 0.4 | -1 | -4.6 | -1 | 37
CN(C)Cc1c(C(C)(C)O)[nH]c2ccc(C(F)(F)F)cc12 | · | 1.6 | · | 0.1 | -6 | -3.3 | -7 | ·
COc1cccc(NC(=O)CN(C)C(=O)/C=C/c2cc(OC)ccc2OC)c1 | 2 | -373 | 4.3 | -0.1 | -2 | -1.6 | 2 | 4
Cn1c(=O)c(C(=O)c2ccccc2)c(O)c2ccccc21 | 2 | 6.8 | -1.3 | 1.4 | 1 | -0.9 | 0 | -5
CCCS(=O)(=O)c1nc(S(=O)(=O)c2ccc(C)cc2)c(NCCCn2ccnc2)s1 | 14 | 4.5 | -1.0 | -0.7 | -5 | -2.7 | -12 | 13
COc1ccc(N2C(=O)CC(Sc3nc(C)cc(C)c3C#N)C2=O)cc1 (configuration not stated) | 17 | 2.6 | -3.6 | -3.0 | -6 | 9.6 | -13 | -5
CC1CCN(C(=O)c2cc(N3C(=O)C4C5CCC(C5)C4C3=O)ccc2Cl)CC1 (configuration not stated) | 15 | 5.4 | 2.2 | -0.4 | -1 | 6.1 | · | 6
CCOC(=O)C1=C(COC(=O)CCc2ccc(F)cc2)NC(=O)NC1C (configuration not stated) | · | 2.2 | · | -0.5 | 6 | 0.5 | 2 | ·
CCn1cc(Cl)c(C(=O)Nc2ccc(OC)c(OC)c2)n1 | 14 | 4.4 | 1.8 | -2.0 | -2 | -5.0 | -1 | -9
CC(C)NC(=O)COC(=O)c1ccc(Cl)c(S(N)(=O)=O)c1 | -5 | 2.3 | -0.3 | 0.3 | 2 | 4.2 | 1 | -11
COc1ccc(Cc2nnc(NC(=O)c3cccs3)s2)cc1 | -5 | 5.2 | ? | 0.0 | -2 | -4.1 | -24 | -2
CCOCC(=O)Nc1ccccc1C(=O)N1CCOCC1 | -12 | 1.5 | 7.1 | 0.1 | -2 | 0.8 | 1 | 5
CCOC(=O)CSc1ccc(S(=O)(=O)N(C)C2CCCCC2)cc1[N+](=O)[O-] | -8 | -0.9 | -1.6 | -0.1 | -3 | 0.0 | 8 | 0
O=C(O)c1ccccc1/C=N/NC(=S)NC1CCCCC1 | 2 | · | -1.8 | 0.4 | -1 | 6.7 | -9 | -7
CC(C)n1nc(C(=O)NC2CCCCCC2)c2ccccc2c1=O | · | 2.4 | · | 0.7 | 0 | -5.4 | -1 | ·
CCCCC(=O)Nc1ccc2c3c(cccc13)CC2 | ? | -7.0 | 2.0 | -0.1 | 3 | -1.7 | 46* | -10
CCOc1cc(CNCc2ccccn2)cc(Cl)c1OCC | -11 | 1.4 | -2.9 | 0.3 | 2 | -7.2 | -6 | -8
COc1ccc(OC)c(Nc2c3ccccc3nc3ccccc23)c1 | 17 | · | 32* | 1.0 | 22 | -2.2 | -77 | 43
CCOC(=O)N1CCN(S(=O)(=O)N2CCCC(C(=O)NCCCN3CC(C)CC(C)C3)C2)CC1 (configuration not stated) | -7 | -0.8 | -3.2 | -0.5 | 0 | -2.1 | 4 | 16
COc1ccc(CC2(CO)CCN(S(=O)(=O)c3cccc4cccnc34)CC2)cc1 | -7 | 5.2 | -3.0 | 0.0 | 0 | -1.0 | -2 | -7
COc1cc(C(=O)NNc2nc3cc4c(cc3s2)OCO4)cc(OC)c1OC | 4 | 1.9 | -0.9 | · | -11 | -7.0 | 13 | -4
CC(C)C(C)(C#N)NC(=O)CN1C(=O)NC2(CCCc3ccccc32)C1=O (configuration not stated) | 24 | 5.9 | 2.2 | 0.1 | -3 | -7.2 | 1 | -9
CCOC(=O)c1c(C)[nH]c(C(=O)CSc2nc(C)cc(C)n2)c1C | -6 | 2.3 | 0.3 | -0.3 | -12 | -7.3 | 1 | 9
COc1ccc(Nc2ccc(S(=O)(=O)N3CCCCCC3)cc2[N+](=O)[O-])cc1 | 13 | 1.3 | 0.5 | 0.5 | 10 | 1.0 | -16 | 5
Cc1ccc(S(=O)(=O)N(CC(=O)Nc2cccc([N+](=O)[O-])c2)C(=O)N2CCN(C)CC2)cc1 | -9 | 0.4 | 2.0 | · | · | · | 10 | -3
O=C(CS(=O)(=O)c1ccccc1)Nc1ncc([N+](=O)[O-])s1 | 0 | 8.5 | -3.2 | -0.4 | · | 0.6 | 1 | 4
COc1cccc(C(=O)Cn2c(NCCCO)nc3ccccc32)c1 | 0 | 4.6 | 2.8 | -0.5 | · | 2.9 | -7 | -8
O=C(O)C1CCCCC1C(=O)Nc1nc(-c2cccs2)cs1 (configuration not stated) | -8 | 4.7 | 1.9 | -0.2 | -6 | 4.9 | -6 | -11
O=C(Cn1cnc2ccccc2c1=O)NCc1ccco1 | ? | 4.6 | 0.3 | 0.3 | 0 | -6.0 | 3 | -1

(list continues)
SMILES | Calb FLC | UCH37 inh | RanGTP-Impb inh | A1 inh | Beta cell apopt | LANA-H2A inh | B2AR ag | T cruzi inh
N#Cc1cc(C(=O)c2cc(Br)ccc2O)cn(C2CCCCC2)c1=O | -6 | 6.7 | 0.4 | 0.3 | 10 | 3.5 | -6 | 0
CNC(=S)N(CCCO)Cc1cc2cc3c(cc2[nH]c1=O)OCO3 | -4 | -139 | -3.6 | -0.9 | -1 | 3.7 | 3 | -8
Cc1ccc(CC2S/C(=N/c3ccccn3)NC2=O)cc1 (configuration not stated) | 2 | 2.0 | 6.1 | -0.4 | -5 | -2.4 | -9 | -4
CCN(CC)S(=O)(=O)c1ccc(N2CCOCC2)c(NC(=O)CC(C)(C)C)c1 | 1 | -2.4 | -2.3 | 0.4 | 3 | -4.5 | -3 | 4
CC(C)Cc1nc(SCc2cccnc2)c2c(=O)n(C)c(=O)n(C)c2n1 | -37 | 3.5 | -1.7 | -2.1 | · | 3.6 | -5 | 32
CN(C)S(=O)(=O)c1cccc(NC(=O)CSc2cccc3cccnc23)c1 | 1 | -37 | -2.1 | -1.3 | · | -11 | 36 | 60*
C/C(=N\Nc1ccccc1[N+](=O)[O-])c1ccc(N2CCOCC2)cc1 | -5 | · | 0.3 | -1.7 | 11 | 6.5 | 2 | 2
CCCCn1c2nc3ccccc3nc2c2c(=O)n(C(C)CC)cnc21 (configuration not stated) | 30 | -266 | 0.3 | 0.0 | 8 | -4.0 | 7 | 23
CCn1cc(SCC(=O)N2CCc3ccccc32)c2ccccc21 | 2 | -3.0 | -5.3 | 0.1 | -8 | 3.4 | 11 | 14
COc1ccccc1-c1cc(C(=O)N/N=C/c2cccs2)c2ccccc2n1 | 27 | · | -1.7 | 0.6 | 4 | 3.9 | -7 | 1
CCN(CC(=O)Nc1cc(Cl)ccc1C)C(=O)C1CC1 | · | -2.8 | · | 0.9 | 3 | 3.1 | 1 | ·
COc1ccc(NC(=O)N2CCCC2C(=O)Nc2ccccc2)cc1 (configuration not stated) | -9 | -1.4 | 0.8 | 0.5 | 0 | 4.0 | -9 | -17
